Bead autofluor: counter-screen for toxin protease inhibitors: compound fluorescence; compound autofluorescence counterscreen, microsphere flow cytometry; stronger effect = higher value; fluorescence intensity (test concentration not listed); 3.1% of 360,000 active; AID 624483;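 active = at least 3 SD above the mean of all compounds, about 16000 in these data; inconclusive = too few beads counted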;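 note: 100 nL of 1 mM stock went into each well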
Mtb hypoxia rep: Mtb hypoxia fluorescent reporter inhibition; M. tuberculosis hypoxia-regulated fluorescent reporter, fluorescence; fluorescence inhibition, % (concentration not given with the values); 0.1% of 300,000 active; AID 1159583;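 active = 35 to 45% if threefold the growth effect, above 45% if 1.5-fold the growth effect; inactive = the rest, general growth blockers included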;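 note: wells of about 50 µL received 100 nL stock; 0% = vehicle wells and 100% = reference inhibitor wells; whole bacteria with a GFP reporter of the hypoxia response; strong numbers were not always called active; many hits fall short of the cut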
Sa RN4220 lethal: S. aureus RN4220 growth inhibition. OD600, 16 h. inhibition, % (no concentration beside the values). 0.33% of 330,000 active. AID 1259311;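 active = z-score of -3 or lower and OD600 up to 0.18 on both plates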;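 note: plate controls were untreated cells for no effect and reference antibiotic for full effect; stock transfer was 100 nL into about 80 µL; one replicate is shown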
BJeLR viability: BJeLR cell viability loss. BJeLR (HRASV12) viability, CellTiter-Glo ATP luminescence, 48 h; reference of the scale not given here. inhibition, % (test concentration not listed). 0.17% of 300,000 active;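 active = replicate mean above 50%; inconclusive = above 50% but judged a plate artefact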;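 note: 50 nL library stock added to about 25 µL; numbers are from one replicate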
ugtP null kill: kills S. aureus RN4220 lacking UgtP | growth inhibition, % (concentration not given with the values) | S. aureus RN4220 ugtP deletion, OD600 growth, 16 h; some inactives read as strong as hits | 0.54% of 330,000 active | AID 1259309;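 active = z-score under -3 and OD600 up to 0.15 on both plates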;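 note: plate controls were untreated wells for no effect and antibiotic for full effect; wells of about 80 µL received 100 nL stock; the first replicate is given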
PrP UTR inh: suppresses PrP 5' UTR mRNA reporter expression; cell-based PrP 5' UTR mRNA reporter, plate reader; 0.35% of 340,000 active; inhibition, % (concentration not given with the values);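 active = every replicate at 50% or more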;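 note: 0 = median of the neutral control wells; tested in H4 reporter cells; numbers are from one replicate; inactives centre near -14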
Mtb hypoxia rep growth: further read-out of Mtb hypoxia rep, marked with its call; growth inhibition, %; measured here: M. tuberculosis growth (absorbance);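 0% = vehicle and 100% = reference antibiotic; read after six days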
The depositor's hits bear a star; ? = inconclusive; / = no result given.

# | smiles | Bead autofluor | Mtb hypoxia rep | Mtb hypoxia rep growth | Sa RN4220 lethal
1 | COc1ccc(CCNS(=O)(=O)CCNC(=O)c2ccc(OC)cc2)cc1 | ? | -6 | -9 | 3.9
2 | CCOc1cccc(C=NN2CCN(c3ccc(Cl)cc3)CC2)c1O | / | 5 | 8 | 12
3 | OC(CN1CCN(c2ccccc2Cl)CC1)c1ccccc1 (stereo not given) | 4041 | 8 | 4 | 1.3
4 | Cc1ccc(S(=O)(=O)N(C)Cc2cc3ccccc3[nH]c2=O)cc1 | 22031* | -9 | 0 | 0.5
5 | CS(=O)(=O)N1N=C(c2ccco2)CC1c1ccccc1Cl (stereo not given) | 4586 | 12 | 7 | 3.9
6 | CCCn1nc(NC(=O)CC)c2cc3cccc(C)c3nc21 | 2886 | / | / | /
7 | CC1CN(Cc2cc(=O)oc3cc(O)c(Cl)cc23)CC(C)O1 (stereo not given) | 5324 | 8 | 3 | 0.5
8 | COC(=O)c1cc(NC(=O)CN2CCC(C(N)=O)(N3CCCCC3)CC2)cc(C(=O)OC)c1 | 10985 | 6 | 6 | 2.2

# | BJeLR viability | ugtP null kill | PrP UTR inh
1 | -7 | 2 | -23
2 | / | -15 | /
3 | -4 | 14 | -15
4 | 0 | -7 | 0
5 | -9 | 8 | -9
6 | 4 | / | 27
7 | -4 | 4 | -27
8 | 3 | 3 | -21

Part of the list above, with two lines to a compound:
Below each compound – Bead autofluor	Mtb hypoxia rep	Mtb hypoxia rep growth	Sa RN4220 lethal	BJeLR viability	ugtP null kill	PrP UTR inh
2: CCOc1cccc(C=NN2CCN(c3ccc(Cl)cc3)CC2)c1O
  /	5	8	12	/	-15	/
3: OC(CN1CCN(c2ccccc2Cl)CC1)c1ccccc1 (stereo not given)
  4041	8	4	1.3	-4	14	-15
4: Cc1ccc(S(=O)(=O)N(C)Cc2cc3ccccc3[nH]c2=O)cc1
  22031*	-9	0	0.5	0	-7	0
5: CS(=O)(=O)N1N=C(c2ccco2)CC1c1ccccc1Cl (stereo not given)
  4586	12	7	3.9	-9	8	-9
6: CCCn1nc(NC(=O)CC)c2cc3cccc(C)c3nc21
  2886	/	/	/	4	/	27

In the list so far, these contain nitrogen in an aromatic ring.
# | smiles | Bead autofluor | Mtb hypoxia rep | Mtb hypoxia rep growth | Sa RN4220 lethal
4 | Cc1ccc(S(=O)(=O)N(C)Cc2cc3ccccc3[nH]c2=O)cc1 | 22031* | -9 | 0 | 0.5
6 | CCCn1nc(NC(=O)CC)c2cc3cccc(C)c3nc21 | 2886 | / | / | /

# | BJeLR viability | ugtP null kill | PrP UTR inh
4 | 0 | -7 | 0
6 | 4 | / | 27

New compounds follow.
# | smiles | Bead autofluor | Mtb hypoxia rep | Mtb hypoxia rep growth | Sa RN4220 lethal
9 | CCCOc1ccc(/C=N/Nc2ccccc2[N+](=O)[O-])c(O)c1 | 2230 | / | / | /
10 | CC1(C)Cc2c(sc3c2c(=N)n(Cc2ccco2)c(=O)n3Cc2ccc(F)cc2)CO1 | 5129 | / | / | -0.9
11 | COC(=O)C1=C(C)Nc2nc3ccccc3n2C1c1ccccc1F (stereo not given) | / | 9 | 4 | 1.1
12 | CSc1ccc(CN(C)C(=O)c2ccc(S(=O)(=O)Nc3ccccc3)cc2)cc1 | 4666 | 2 | 4 | 0.7
13 | Cc1ccc(C)c(S(=O)(=O)c2c(C)cc(C)nc2Cl)c1 | 3252 | 8 | 10 | 2.5
14 | C[C@H](NC(=O)[C@@H]1CCC(=O)N1Cc1ccco1)c1ccccc1 | 2795 | 5 | 5 | 0.5
15 | COc1ccc(CNCCC(c2ccc(OC)cc2)c2ccccc2OC)cc1 (stereo not given) | 4040 | -8 | -4 | -1.8
16 | COc1ccc(Nc2ncnc3sc(-c4ccccc4)cc23)c(OC)c1 | 5505 | -6 | 13 | -3.1

# | BJeLR viability | ugtP null kill | PrP UTR inh
9 | 47 | / | 33
10 | / | 9 | -1
11 | 0 | -3 | /
12 | 16 | -4 | -22
13 | -10 | 0 | -21
14 | -7 | 7 | -9
15 | 21 | -2 | -4
16 | -2 | -9 | -11

The listing continues.
# | smiles | Bead autofluor | Mtb hypoxia rep | Mtb hypoxia rep growth | Sa RN4220 lethal
17 | COc1ccc(CCNC(=O)C2CCN(C(=O)c3ccc(Cl)cc3)CC2)cc1OC | 3702 | 6 | 14 | 5.9
18 | CCN1CCN(c2nc3c(c(=O)[nH]c(=O)n3C)n2CCSc2nc3ccccc3s2)CC1 | 5874 | 7 | 7 | -7.9
19 | CCOC(=O)c1sc2nc(C)nc(NCCc3ccccn3)c2c1C | 4535 | 2 | 17 | -0.1
20 | O=C(O)C1=CC(C2CCCCC2)CC(OCc2ccc(CO)cc2)O1 (stereo not given) | / | 5 | 1 | 10
21 | NC(Cc1c[nH]c2ccccc12)C(=O)Nc1ccccc1 (stereo not given) | 5700 | / | / | 0.5
22 | CCOc1ccc(S(=O)(=O)N(CC(=O)N/N=C/c2ccc(-c3ccc([N+](=O)[O-])cc3)o2)c2ccccc2)cc1 | 2614 | / | / | /
23 | CC(C)NCC(O)COc1ccc2c(c1)CCC2 (stereo not given) | 2391 | 9 | 7 | 5.3
24 | COc1ccc2c(c1)c(=O)oc1c(C)c(OCC(=O)N3CCc4ccccc4C3)ccc12 | 3151 | 7 | 4 | 7.8

# | BJeLR viability | ugtP null kill | PrP UTR inh
17 | -12 | 15 | -18
18 | 0 | -3 | -9
19 | 10 | 0 | 4
20 | / | 3 | /
21 | 1 | -11 | -16
22 | 13 | / | 11
23 | 8 | 13 | -16
24 | 13 | 10 | -9

The results go on:
# | smiles | Bead autofluor | Mtb hypoxia rep | Mtb hypoxia rep growth | Sa RN4220 lethal
25 | COC(=O)c1[nH]c(C)c(/C(O)=C2\C(=O)C(=O)N(CCN3CCOCC3)C2c2ccccc2OC)c1C (stereo not given) | 5387 | 3 | 0 | 0.9
26 | C/C(CC(=O)Nc1ccc2c(c1)OCCO2)=N\NC(=O)COc1ccc(C)cc1Br | 6068 | / | / | /
27 | CCc1c(C)nc2c(C)cccc2c1SCCC#N | 2234 | 11 | -7 | 11
28 | O=C(N/N=C/c1ccc2c(c1)OCO2)c1ccc(Cl)cc1Cl | 4245 | / | / | /
29 | Cc1ccc(CC(=O)Nc2ccc(S(=O)(=O)Nc3ncccn3)cc2)cc1 | 3637 | 16 | 14 | 5.9
30 | Cc1cc(C)cc(Nc2c(F)c(F)c(F)c(F)c2C(=O)O)c1 | 3440 | 9 | 3 | 21
31 | COc1ccc(Br)cc1S(=O)(=O)Nc1cccc(C)n1 | 4362 | 13 | 5 | 1.6
32 | CCOc1cc(S(=O)(=O)n2c(C)nc3ccccc32)ccc1F | 4446 | / | / | 1.0

# | BJeLR viability | ugtP null kill | PrP UTR inh
25 | 2 | -3 | -13
26 | 3 | / | -3
27 | 4 | -10 | -18
28 | 1 | / | -15
29 | 0 | 0 | -50
30 | 6 | -1 | -18
31 | -1 | 4 | -19
32 | 2 | 4 | 7

(cont.)
# | smiles | Bead autofluor | Mtb hypoxia rep | Mtb hypoxia rep growth | Sa RN4220 lethal
33 | CN(Cc1c(C(=O)N/N=C/c2ccc(F)cc2)nnn1-c1nonc1N)C1CCCCC1 | 5123 | / | / | /
34 | O=C(COC(=O)CC1CC2CCC1C2)Nc1ccc(F)cc1Cl (stereo not given) | 5240 | -6 | 2 | 2.9
35 | COc1ccc(Cl)cc1C(=O)Nc1ccc(OCC(=O)N2CCOCC2)cc1 | 4470 | 8 | 0 | 4.0
36 | S=C(NCCCn1ccnc1)Nc1cccc(Cl)c1 | 3427 | 9 | -4 | 0.4
37 | CC1CCN(C(=O)C=Cc2ccc(C(C)(C)C)cc2)CC1 | / | 8 | 14 | 4.2
38 | CCCC(C)c1nc(C(N)=O)c2[nH]c(=O)n(-c3ccc(OC)cc3OC)c2n1 (stereo not given) | 5546 | -4 | 8 | -0.6

# | BJeLR viability | ugtP null kill | PrP UTR inh
33 | 3 | / | -5
34 | / | 8 | -18
35 | -7 | 12 | -10
36 | 9 | 3 | -13
37 | / | -7 | /
38 | -1 | -6 | 8

Screens: PubChem BioAssay, several laboratories
